# Bioassay records from PubChem BioAssay.
# MT1-MMP act inh: blocks activation of human MT1-MMP; P50281; HT1080 RFP-PRO-GFP cells, GFP/RFP ratio fluorescence, overnight; percent of plate control window, DMSO zero; GFP/RFP ratio change, % at 20 µM; hit rate 0.061% among 360,000; AID 651647;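 active means GFP/RFP ratio change of at least 30% with cell ATP level not reduced by more than half and red fluorescence within 50% of control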; further: strong numbers were not always called active
#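 Material: RFP-PRO-GFP reporter HT1080 cells. Dosing: single-point 20 µM compound, 1% DMSO. Controls: DMSO and RFP-L50D-GFP cell wells. Timing: cells overnight before dosing, compound overnight, 37 °C, 5% CO2. Measure: GFP/RFP fluorescence ratio.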
# Env fusion inh: inhibitors of HIV Env-mediated cell fusion | AID 651610 | HeLa-JRFL Env/CEM21 cell fusion, luciferase | inhibition, % at 12.3 µM | hit rate 1.1% among 360,000;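 active means mean replicate inhibition score of at least 50 and every replicate individually at or above 50; inconclusive means only one of the two criteria met; inactive means mean below 50 and not all replicates reaching 50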;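 further: 0% = plate neutral controls and 100% = maraviroc near 300 nM; one replicate is shown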
# MT1-MMP act inh RFP: further read-out of MT1-MMP act inh, marked with its call; RFP signal change, %; measured here: RFP expression control read;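 0 = vehicle wells; hits needed this value within 50% of zero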
# Starred values were filed as active, the others as inactive; u = inconclusive. Not all compounds are listed. The share of hits here may be higher or lower than overall.
entry	compound	MT1-MMP act inh	MT1-MMP act inh RFP	Env fusion inh
1	CCOC(=O)CC1COCCN1C(=O)c1cc(COc2ccccc2SC)on1 (stereo not drawn)	2	-5	11
2	CCOc1ccc(NC(=O)COC(=O)c2cc(=O)c3ccccc3o2)cc1	2	3	-16
3	COc1ccc(-c2nc3cc(C)c(Br)c(C)n3c2CC2CCCCC2)cc1OC	-6	-3	9
4	CCOC(=O)[C@]12CCC=C1N(Cc1ccc(Cl)cc1Cl)C(=O)[C@H](CC(=O)N1CCCC1)C2	-3	-12	-11
5	C=CCOc1ccc(/C=C/C(=O)N2CCCN(S(=O)(=O)c3c(C)noc3C)CC2)cc1	5	-9	25
6	CC(C)(C)NC(=O)C(CCc1ccccc1)n1c(=O)c(-c2ccccc2)nc2ccccc21 (stereo not drawn)	-26	-14	20
7	CCOC(=O)[C@]12CCCC=C1N(CCC1=CCCCC1)C(=O)[C@H](CC(=O)NCCC(C)C)C2	-14	-16	38
8	O=C1C=CC(=Nc2ccc3c(c2)Cc2cc(F)ccc2-3)O1	-1	5	-16
9	CCC(C(=O)NC(C)(C)C)n1c(-c2cccc(NC(C)=O)c2)nc2ccccc21 (stereo not drawn)	2	8	-22
10	OCC1OC(c2ccc(O)cc2O)C(O)C1O (stereo not drawn)	10	6	-11
11	O=[N+]([O-])c1ccc(S(=O)(=O)NN=Cc2ccc3c(c2)OCO3)cc1	-4	1	-52
12	O=C1NC[C@H](CCCCN2C[C@H](Cc3ccccc3)N(CCc3ccccc3)C(=O)C2=O)N(CCc2ccc(O)cc2)C1=O	5	3	-3
13	O=C1C=CC(=O)N1c1ccc2c(c1)C(NC(=O)C(F)(F)F)c1ccccc1-2 (stereo not drawn)	1	3	-14
14	Cc1ccn2c(NC3CCCCC3)c(-c3ccc(SC4CCCCC4)cc3)nc2c1	-31	-22	27
15	COc1nc(NC2OC(CO)C(O)C(O)C2O)c(N)c(=O)[nH]1 (stereo not drawn)	-3	4	-7
16	CC1(c2nnnn2-c2ccc3c(c2)OCCO3)CCC(=O)N1Cc1ccc(F)cc1 (stereo not drawn)	0	0	5
17	CCOC(=O)C(Cc1ccc(O)c([N+](=O)[O-])c1)N1C(=O)c2ccccc2C1=O (stereo not drawn)	2	-11	20
18	CC(=O)c1cc(Cl)ccc1OCC(=O)NC1CCCC1	0	-3	-9
19	COC(=O)c1ccc2nc(-c3cccc(Br)c3)c(CC3CCCCC3)n2c1	-10	-17	-30
20	COC(=O)C[C@@H]1C=C[C@@H](NC(=O)c2ccc3c(c2)OCO3)[C@@H](CO)O1	5	8	-9
21	Nc1nc(=S)c2ncn(C3OC(CO)CC3O)c2[nH]1 (stereo not drawn)	-2	2	-5
22	O=C(O)CCCN1C(=O)C2C3CCC(C3)C2C1=O (stereo not drawn)	3	-1	-12
23	COc1ccccc1C=NN1C(=O)CSC1=S	-2	4	-13
24	COCCN1C(=O)CN(S(C)(=O)=O)CC1(C)C(=O)Nc1ccc2c(c1)OCCO2 (stereo not drawn)	-1	6	1
25	O=C(COC(=O)CC1CCCC1)Nc1ccc(Cl)cc1	2	0	-87

# Entries of single compounds from above. Screens in order: MT1-MMP act inh	MT1-MMP act inh RFP	Env fusion inh
# CCOC(=O)[C@]12CCC=C1N(Cc1ccc(Cl)cc1Cl)C(=O)[C@H](CC(=O)N1CCCC1)C2 as listed: -3	-12	-11
# CCOC(=O)C(Cc1ccc(O)c([N+](=O)[O-])c1)N1C(=O)c2ccccc2C1=O (stereo not drawn) as listed: 2	-11	20
# O=C1C=CC(=O)N1c1ccc2c(c1)C(NC(=O)C(F)(F)F)c1ccccc1-2 (stereo not drawn) as listed: 1	3	-14
# CCOc1ccc(NC(=O)COC(=O)c2cc(=O)c3ccccc3o2)cc1 as listed: 2	3	-16
# COCCN1C(=O)CN(S(C)(=O)=O)CC1(C)C(=O)Nc1ccc2c(c1)OCCO2 (stereo not drawn) as listed: -1	6	1

# Further entries follow.
entry	compound	MT1-MMP act inh	MT1-MMP act inh RFP	Env fusion inh
26	CCOC(=O)[C@]12CCC=C1N(Cc1ccco1)C(=O)[C@H](CC(=O)NCC13CC4CC(CC(C4)C1)C3)C2	-4	-5	-10
27	CNc1nc(Oc2cccc(F)c2)c2sccc2n1	0	2	-26
28	O=C(NCc1ccncc1)[C@@H]1CCCN1C(=O)[C@@H]1CCCN1C(=O)c1ccccc1	0	1	9
29	O=C(CC1Sc2ccccc2NC1=O)NNc1cccc(Cl)c1Cl (stereo not drawn)	8	4	19
30	CCOC(=O)c1ccc(NC(=O)NC2=NCCS2)cc1	7	-5	-132
31	Cn1c(NCc2ccncc2)nc2cc(-c3ccsc3)sc2c1=O	1	-4	11
32	COC(=O)[C@@]12C[C@@H](CC(=O)NCc3ccccc3)C(=O)N(Cc3ccco3)C1=CCC(C)(C)C2	-3	-4	0
33	O=C(C(=Cc1ccc(O)cc1)c1ccccc1)c1ccccc1	8	-10	21
34	CSCCC(C(=O)NC(C)(C)C)n1c(-c2cccc(NC(C)=O)c2)nc2ccccc21 (stereo not drawn)	-3	4	8
35	CC1=C(C(=O)N2CCCCCC2)CC(CC(=O)NCCN2CCOCC2)C(=O)N1Cc1ccc(F)cc1 (stereo not drawn)	6	6	-12
36	Cc1cc2nc(-c3ccc(Cl)cc3)c(Cc3cccc(Cl)c3)n2c(C)c1Br	3	0	-6
37	COC(=O)C[C@H]1C=C[C@H](NC(=O)c2ccccn2)[C@@H](CO)O1	1	6	72*
38	CN(C)c1ccc(C=c2c3ccccc3n3c2c2ccccc2[n+]3C)cc1	90	31	58*
39	COc1cc(C2c3cc4c(cc3OC(NCc3ccccc3)C2C)OCO4)cc(OC)c1OC (stereo not drawn)	23	3	-17
40	COC(=O)C1=CN(c2ccc(N3CCOCC3)cc2)C(N)=C(C#N)C1c1cccc(F)c1 (stereo not drawn)	-1	4	5
41	O=C(NCCN1CCC(n2c(=O)[nH]c3ccccc32)CC1)c1ccc(F)cc1	2	-1	-24
42	CCOc1ccc(CCN2C(=O)C(=O)N([C@@H](Cc3ccc(O)cc3)CN3CCC[C@H]3CN3C(=O)C(=O)NC[C@@H]3Cc3ccc(O)cc3)C[C@@H]2Cc2ccc(O)cc2)cc1	1	6	24
43	Cc1ccc(NC(=O)N2CCOCC2)cc1NC(=O)N1CCOCC1	4	4	-7
44	O=C(Nc1ccc2c(c1)OCCO2)C1c2ccccc2OCC(=O)N1CC(F)(F)F (stereo not drawn)	-7	-1	4
45	COC(=O)C1=CN(c2ccc(F)cc2)C(N)=C(C#N)C1c1ccc(-c2ccccc2)cc1 (stereo not drawn)	0	-9	-35
46	C[C@@H]1CN([C@H](C)CO)C(=O)c2c(c3ccccc3n2C)-c2ccccc2CO[C@H]1CN(C)Cc1ccc(-c2ccccc2)cc1	-8	-15	5
47	CCOC1=C2CN(S(=O)(=O)c3ccc(C)cc3)C(c3cccc(Cl)c3)CC2N(S(=O)(=O)c2ccc(Cl)cc2)C(c2ccccc2)C1 (stereo not drawn)	11	-28	34
48	CC(C)C[C@H]1CN(CCCC[C@H]2CNC(=O)C(=O)N2Cc2ccccc2)C(=O)C(=O)N1CCC1CCCCC1	2	3	8
49	O=C(NC1CCCCC1)c1csnn1	2	2	11
50	CC(C)C[C@H]1CN(CCCC[C@@H]2CNC(=O)C(=O)N2CCc2ccccc2)C(=O)C(=O)N1CCC1CCCCC1	1	1	-93

# Screen by screen, as entered above.
# Env fusion inh, entries 29 to 36: 19, -132, 11, 0, 21, 8, -12, -6
# MT1-MMP act inh, entries 29 to 36: 8, 7, 1, -3, 8, -3, 6, 3
# MT1-MMP act inh RFP, entries 29 to 36: 4, -5, -4, -4, -10, 4, 6, 0

# (next part)
entry	compound	MT1-MMP act inh	MT1-MMP act inh RFP	Env fusion inh
51	COc1ccc(CN2CCC2(C)C(=O)NCCNC(C)=O)c2ccccc12 (stereo not drawn)	2	5	15
52	CC(=O)N1CCC(C(=O)N2c3ccccc3N=C(c3ccc(C(F)(F)F)cc3)C2C(=O)NC(C)C)CC1 (stereo not drawn)	-4	-2	8
53	Cc1ccc(S(=O)(=O)N2CCC(=O)N([C@H](COCc3ccc(C(F)(F)F)cc3)C(C)C)CC2)cc1	-2	-20	28
54	CC(C)(C)NC(=O)C(c1ccccc1)n1c(=O)c(-c2cc3ccccc3[nH]2)nc2ccccc21 (stereo not drawn)	-9	-15	36
55	CCC(=O)c1ccc(OC)c(OC)c1OCc1ccccc1	3	1	1
56	O=C1C(F)=CC(COC(c2ccccc2)(c2ccccc2)c2ccccc2)OC1n1cc(F)c(=O)[nH]c1=O (stereo not drawn)	-11	-22	u
57	Cc1cc(Br)cn2c(Cc3ccccc3C(F)(F)F)c(-c3cccc(Br)c3)nc12	5	4	-47
58	COc1ccc(C2c3cc4c(cc3OC(N3CCOCC3)C2C)OCO4)c(OC)c1 (stereo not drawn)	6	2	11
59	O=C(Nc1cccc(C(=O)N2CCOCC2)c1)C1CCCCC1	10	7	4
60	Cc1ccc(S(=O)(=O)N2CCC(=O)N([C@H](COCc3cccc(C)c3)C(C)C)CC2)cc1	5	-7	18
61	O=C(N/N=C/c1cccc(O)c1)c1ccc(-n2cnnn2)cc1	2	3	-88
62	O=C1NC[C@@H](CCCCN2C[C@H](Cc3ccc(O)cc3)N(Cc3ccccc3)C(=O)C2=O)N(CCc2ccc(O)cc2)C1=O	2	7	57*
63	O=C(NCc1ccccc1Cl)[C@H]1CCCN1C(=O)[C@H]1CCCN1C(=O)c1ccccc1	5	0	10
64	Cc1ccc(S(=O)(=O)N2CCN(CCOc3ccccc3)CC2)cc1	-4	-1	4
65	CCOC(=O)[C@]12CCC=C1N(Cc1ccco1)C(=O)[C@H](CC(=O)N1CCSCC1)C2	1	8	-29
66	C=CCNc1nc(-c2sc(NC(=O)C(C)(C)C)nc2C)c(-n2cc(-c3ccccc3)nn2)s1	-8	-17	18
67	CN(C)CCC(C(=O)c1ccccc1)c1ccncc1 (stereo not drawn)	-2	-1	1
68	CC[C@H]1O[C@H](C)CC2=C1C(=O)OC(C)(C)O2	-1	4	11
69	CCOC(=O)n1cnc2nc(N)nc(SC)c21	1	3	-3
70	CC(=O)NC(CC(C)C)C(=O)NC(Cc1ccccc1)C(=O)CCl (stereo not drawn)	1	0	10
71	Cc1cc(=O)c2c(o1)C(=O)c1occc1C2=O	5	7	11
72	O=C(Cc1ccccc1[N+](=O)[O-])NCC(O)c1ccc2c(c1)OCO2 (stereo not drawn)	-1	5	3
73	CCN1CCN(C(c2ccccc2)c2nnnn2C(C)(C)C)CC1 (stereo not drawn)	4	4	-3
74	CN(Cc1cnc2nc(N)nc(N)c2n1)c1ccc(C(=O)NC(CCC(=O)O)C(=O)O)c2ccccc12 (stereo not drawn)	-12	6	64*
75	COc1ccccc1Cc1c(-c2ccc(OC)c(OC)c2)nc2cc(C)c(Br)c(C)n12	0	-4	-22
76	CC1(C(=O)NS(=O)(=O)c2ccccc2Cl)CCN1C(=O)CC1CCCCC1 (stereo not drawn)	-2	6	16
77	CCOC(=O)[C@]12CCCC=C1N(Cc1cccc3ccccc13)C(=O)[C@H](CC(=O)N1CCCC1)C2	-3	-9	-26
78	CCCCN1C(=O)C(=O)NC[C@@H]1Cc1ccc(O)cc1	8	6	-11
79	CCC(c1nc2ccccc2[nH]1)n1c(=O)c(-c2ccccc2)nc2ccccc21 (stereo not drawn)	-8	-2	-7
80	CC(C)N1C(=O)c2ccccc2NC(=O)C1C(=O)NCc1ccccc1 (stereo not drawn)	-1	6	59*
81	CCCCC[C@@H](C)N1C[C@@H](COCc2ccccc2)Oc2cc(N3CC[C@H](N(C)C)C3)ccc2S1(=O)=O	1	-4	-6
82	O=S1(=O)CC(O)C(O)CS1 (stereo not drawn)	1	8	6
83	COC1=CC(=O)OC(c2ccco2)C1 (stereo not drawn)	0	0	7
84	CCOC(=O)[C@]12CCCC=C1N(Cc1ccc(Cl)cc1Cl)C(=O)[C@H](CC(=O)NCC1CCCCC1)C2	-6	-14	-92
85	S=C(SSC(=S)N1CCOCC1)N1CCOCC1	0	0	37
86	COc1ccc(OC)c(CN2C(=O)CSCC2(C)C(=O)NC(C)C)c1 (stereo not drawn)	2	4	-5
87	Fc1ccc(-c2nc3c(Cl)cc(C(F)(F)F)cn3c2Cc2ccsc2)cc1	1	0	-7
88	Cc1nn(-c2ccccc2)c(C)c1C(=O)OCC(O)=C(C#N)c1nc2ccccc2[nH]1	-4	5	-61
89	Nc1cc2[nH]c(=O)c3ccccc3c2cc1[N+](=O)[O-]	5	-1	10
90	O=[N+]([O-])c1cccc(C([O-])=C(C(=S)Nc2cccc3ccccc23)[n+]2ccccc2)c1	3	-1	16
91	Nc1ccc2nc(N)sc2c1	7	3	-7
92	COC(=O)[C@]12CCCCC=C1N(Cc1ccc(Cl)cc1Cl)C(=O)[C@H](CC(=O)NCc1ccccc1)C2	-2	-10	-2
93	CC1CCCC=CC2CC(OC(=O)CN(C)C)CC2C(O)C=CC(=O)O1 (stereo not drawn)	2	-16	62*
94	O=C1NC[C@@H](CCCCN2C[C@H](Cc3ccc(O)cc3)N(CCc3ccc(O)cc3)C(=O)C2=O)N(Cc2ccccc2)C1=O	5	6	34
95	O=C(O)c1ccccc1C=NN=C1c2ccccc2-c2ccccc21	-3	0	-35
96	CC(=Cc1cccs1)C(=O)c1ccccc1	-1	1	6
97	CCOC(=O)C1CCCN(C(=O)C2CCN(Cc3nc(-c4ccc(Cl)cc4)oc3C)CC2)C1 (stereo not drawn)	2	-3	15
98	O=P(Cc1ccccc1)(Cc1ccccc1)c1ccccc1	2	8	16
